# Autofluor counter: counter-screen for toxin protease inhibitors: compound fluorescence | compound autofluorescence counterscreen, microsphere flow cytometry; hits give high values | fluorescence intensity (no concentration beside the values) | hit rate 3.1% among 360,000;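 active = at least 3 SD above the mean of all compounds, about 16000 in these data; inconclusive = too few beads counted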;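 also: 100 nL of 1 mM stock went into each well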
# Mtb hypoxia rep: reduces hypoxia-regulated biosensor signal in M. tuberculosis; hit rate 0.1% among 300,000; fluorescence inhibition, % (test concentration not listed); M. tuberculosis hypoxia-regulated fluorescent reporter, fluorescence;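 active = 35 to 45% if threefold the growth effect, above 45% if 1.5-fold the growth effect; inactive = the rest, general growth blockers included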;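 also: wells of about 50 µL received 100 nL stock; 0% = vehicle wells and 100% = reference inhibitor wells; whole bacteria with a GFP reporter of the hypoxia response; strong numbers were not always called active; many hits fall short of the cut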
# Sa ugtP lethal: compounds lethal to S. aureus RN4220 ugtP deletion mutant. hit rate 0.54% among 330,000. OD600 growth, 16 h; some inactives read as strong as hits. growth inhibition, % (test concentration not listed). AID 1259309;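 active = z-score under -3 and OD600 up to 0.15 on both plates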;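 also: plate controls were untreated wells for no effect and antibiotic for full effect; wells of about 80 µL received 100 nL stock; the first replicate is given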
# BJeLR viability: BJeLR cell viability loss; AID 1554; hit rate 0.17% among 300,000; inhibition, % (test concentration not listed); BJeLR (HRASV12) viability, CellTiter-Glo ATP luminescence, 48 h; reference of the scale not given here;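 active = replicate mean above 50%; inconclusive = above 50% but judged a plate artefact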;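 also: 50 nL library stock added to about 25 µL; numbers are from one replicate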
# PrP UTR inh: inhibition of PrP 5' UTR reporter expression; cell-based PrP 5' UTR mRNA reporter, plate reader; inhibition, % (concentration not given with the values); hit rate 0.35% among 340,000;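 active = every replicate at 50% or more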;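 also: 0 = median of the neutral control wells; tested in H4 reporter cells; numbers are from one replicate; inactives centre near -14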
# Sa RN4220 lethal: S. aureus RN4220 growth inhibition; OD600, 16 h; inhibition, % (concentration not given with the values); hit rate 0.33% among 330,000;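 active = z-score of -3 or lower and OD600 up to 0.18 on both plates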;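 also: plate controls were untreated cells for no effect and reference antibiotic for full effect; stock transfer was 100 nL into about 80 µL; one replicate is shown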
# Mtb hypoxia rep growth: second read-out of Mtb hypoxia rep, no call of its own (marks repeat the call); growth inhibition, %; measured here: M. tuberculosis growth (absorbance);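 0% = vehicle and 100% = reference antibiotic; read after six days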
# * hit, by the source's call; ? = inconclusive; . = not tested or not shown.
# Under each structure: PrP UTR inh	Sa RN4220 lethal	Mtb hypoxia rep	BJeLR viability	Autofluor counter	Sa ugtP lethal	Mtb hypoxia rep growth
> CCOc1ccc(-n2c(=O)[nH]cc(C(=O)N3CCCc4ccccc43)c2=O)cc1
→ -44	0.5	2	2	9464	-2	3
> Cn1cccc1C=NNC(=O)c1cncc(Br)c1
→ .	3.3	-2	.	.	7	-1
> Cc1ccccc1N(C(=O)CCC(=O)Nc1ccccn1)C(C(=O)NC(C)C)c1ccc(O)cc1 (centres undefined)
→ -7	0.5	.	-4	2037	3	.
> Cc1ccc(SCC(=O)N2CCC(C(N)=O)CC2)cc1
→ -23	-4.5	-4	-4	3300	-9	0
> O=C(/C=C/c1ccco1)Nc1ccc(-c2nc3ccccc3[nH]2)cc1
→ -5	4.5	6	-5	8798	-3	1
> COc1ccccc1-n1c(=O)[nH]c2c(C(N)=O)nc(C3CCCCC3)nc21
→ -9	3.0	8	10	4703	-6	6
> CC1CCC(=O)N(CCSc2ccc(Br)cc2)CC1 (centres undefined)
→ .	8.5	17	.	.	-10	13
> O=C(N/N=C/c1ccc(O)c(O)c1)N/N=C/c1ccc(O)c(O)c1
→ -14	.	.	1	2990	.	.
> CCOC(=O)N1CCN(C(=O)c2cn(CC(C)C)c(=O)c3c2c2ccccc2n3C)CC1
→ -26	1.9	7	-3	9732	-5	11
> C=CCn1c(-c2cc(-c3ccccc3)sc2N)n[nH]c1=S
→ -27	5.2	5	-3	4501	-5	-1
> CC(C)(C)NC(=O)N1CCN(c2nc3ccc(Cl)cc3s2)CC1
→ -42	1.0	5	1	3717	10	7
> CC(C)c1ccc(C(=O)N2CCN(CCO)CC2)cc1
→ -26	9.7	-1	-2	3201	7	2
> CC1CN(C(=O)c2cc(S(=O)(=O)N3CCCC3)c(Cl)cc2Cl)CC(C)O1 (centres undefined)
→ 6	6.3	10	-2	11185	2	12
> CN(CP(=O)(O)C(O)c1ccccc1)S(C)(=O)=O (centres undefined)
→ -6	0.8	.	2	2569	1	.
> O=C(CSc1nc(N2CCCCC2)nc(N2CCCCC2)n1)N1CCN(c2ccccc2)CC1
→ -24	-8.7	.	-3	5716	-1	.

# Two entries drawn at random from the list so far:
# Under each structure: PrP UTR inh	Sa RN4220 lethal	Mtb hypoxia rep	BJeLR viability	Autofluor counter	Sa ugtP lethal	Mtb hypoxia rep growth
> O=C(N/N=C/c1ccc(O)c(O)c1)N/N=C/c1ccc(O)c(O)c1
→ -14	.	.	1	2990	.	.
> CCOc1ccc(-n2c(=O)[nH]cc(C(=O)N3CCCc4ccccc43)c2=O)cc1
→ -44	0.5	2	2	9464	-2	3

# (list continues)
# Under each structure: PrP UTR inh	Sa RN4220 lethal	Mtb hypoxia rep	BJeLR viability	Autofluor counter	Sa ugtP lethal	Mtb hypoxia rep growth
> COc1ccccc1OCCOCCN1CCCC1
→ -5	-0.1	8	-6	3949	0	4
> O=C(NCCc1ccc(Cl)cc1)c1ccc2nc(N3CCOCC3)sc2c1
→ -20	3.1	-1	6	5689	12	6
> O=C(NCc1ccc(F)cc1)N[C@@H](Cc1ccccc1)C(=O)O
→ -12	2.5	-9	2	22456*	-1	9
> COc1ccc(C)cc1N(CC(=O)NC(C)c1ccccc1)S(C)(=O)=O (centres undefined)
→ -15	4.2	20	8	4375	0	4
> Cc1ccc(N(CCCCN2C(=O)c3ccccc3C2=O)C(=O)c2cccs2)cc1
→ -21	-6.8	.	-5	4260	-4	.
> O=c1c2ccccc2n2nnnc2n1-c1ccccc1
→ -3	6.3	.	-5	4454	6	.
> CCN(CC)C(=O)Oc1ccc(Br)cc1C(=O)Nc1ccc(F)c(Cl)c1
→ -20	-1.1	13	-4	4167	-8	7
> Oc1ccc(Cl)c2cccnc12
→ 2	97*	3	.	2917	98*	7
> CCC(C)C(C(=O)N1CCN(C(=O)OC(C)(C)C)CC1)n1cc(C(Cc2ccc(O)cc2)NC(=O)OC(C)(C)C)nn1 (centres undefined)
→ .	0.7	2	.	.	0	9
> COCCN(CCOC)C(=O)Nc1ccc(Cl)cc1
→ -13	-10.0	2	10	4911	-4	2
> COc1cc2cncc(Cc3ccc(Cl)cc3)c2cc1OC
→ -12	-6.7	9	.	8253	-7	0
> COc1ccc(C(=O)NCC(=O)N/N=C/c2cccnc2)cc1
→ 4	.	.	3	4295	.	.
> Cc1ccc(-c2csc3ncnc(NS(=O)(=O)c4ccc(Cl)cc4)c23)cc1
→ -1	21	1	-2	1995	15	0
> Cc1ccc(S(=O)(=O)NCCC(=O)Nc2ccc(C)cc2C(=O)c2ccccc2)cc1
→ -5	2.2	-10	6	8183	-3	-9
> CCN(CC)S(=O)(=O)c1ccc(Cl)c(NC2=NCCCCC2)c1
→ -27	12	-9	-9	3856	4	8
> COc1cccc2cc(C(=O)C3=C(O)C(=O)N(CCN4CCOCC4)C3c3cccs3)oc12 (centres undefined)
→ -22	-15	7	3	2543	-4	1
> Cc1c(NC(=O)CSc2nnc(-c3cccnc3)n2N)c(=O)n(-c2ccccc2)n1C
→ -13	6.4	-3	.	.	4	0
> COc1cccc(OC)c1C(=O)OCC(=O)NCCCc1ccccc1
→ -9	6.3	6	-10	4192	8	5
> O=C(NCc1ccco1)c1ccc(-c2ccccc2Cl)o1
→ -18	5.9	11	-1	3443	5	9
> Cc1ccc(C(C)(C)C)c(OCCOCCN2CCCC2)c1
→ -11	-1.3	7	2	2295	14	2
> Cc1ccc(OCC(=O)Nc2ccc(CN3CCOCC3)cc2)cc1C
→ -9	.	.	8	?	.	.
> C=CCN=C1S/C(=C/c2ccc([N+](=O)[O-])cc2)C(=O)N1CC=C
→ -17	7.3	10	-6	3376	-4	2
> COCCn1c(C)c(C)c(S(=O)(=O)c2ccccc2)c1N
→ -20	0.6	2	-2	4004	3	2
> CC(C)(C)OC(=O)N1CCN(C(=O)c2[nH]cnc2C(=O)Nc2cccc(Cl)c2)CC1
→ -7	-16	7	.	4080	-6	2
> COCCNC(=O)c1ccc(Cl)c(S(=O)(=O)Nc2cccc(C)c2C)c1
→ -8	4.4	3	2	6895	9	-4
> Cc1nc(SCC(=O)NC2(C#N)CCCC2)n(CC(C)C)c1C
→ -16	4.9	8	.	.	4	15
> Cc1cccn2c(=O)c(/C=C(\C#N)C(=O)NCc3ccco3)c(N3CCC(C(N)=O)CC3)nc12
→ 8	-2.7	11	-1	2073	-2	5
> Cc1ccc(NC(=O)CSc2nnnn2-c2ccc3c(c2)OCO3)cc1C
→ -11	-2.0	.	1	3401	2	.
> O=C(COc1ccc(Cl)cc1)NCc1ccc(F)cc1
→ -13	3.0	11	6	4077	10	10
> OCC[C@@H]1C[C@H](O)[C@@H](O)[C@]2(OCCc3ccccc32)O1
→ -31	.	.	9	3659	.	.
> C/C=C/c1ccc(Oc2nnnn2-c2ccc(C(=O)O)cc2)c(OC)c1
→ -34	2.0	3	5	5682	14	9
> C=CCSc1nc(-c2ccccc2)c(C#N)c(=O)[nH]1
→ .	13	15	.	11136	5	6
> Cc1noc(C)c1COc1ccc(C(=O)N2CCCC(C(F)(F)F)C2)cc1 (centres undefined)
→ -21	-1.2	8	-2	5284	8	3
> CCCCc1cc(=O)oc2c(CN(C)C)c(O)ccc12
→ 12	5.3	6	-7	7742	5	6
> Cc1ccc(NC(=O)COC(=O)Cn2ccc(=O)[nH]c2=O)cc1C
→ -2	5.9	0	.	5969	5	0
> Cc1ccc(-n2nnnc2/C=C\Nc2cc(C)on2)cc1
→ -10	6.8	-2	8	2096	2	11
> CCc1c(C(=O)N/N=C/c2ccsc2)csc1C
→ -29	.	.	0	2418	.	.
> COc1ccc(N2CC(NS(=O)(=O)c3cccnc3)CC2=O)cc1 (centres undefined)
→ -14	0.8	6	-12	.	10	1
> ON=C1CCc2cccc3cccc1c23
→ .	4.3	4	.	.	-2	4
> Cc1cc(C)cc(OCC(=O)Nc2ccc(N3CCCCC3)cc2)c1
→ 11	1.3	1	11	?	1	0
> CN(C(=O)COc1ncnc2ccccc12)C1CCCCC1
→ -7	-3.0	3	.	3696	-5	13
> O=C(CNc1ccc(Br)cc1)c1ccc(O)cc1
→ -30	2.0	6	-3	5170	-6	5
> O=C(CN1CCC(C(=O)c2ccc(Cl)cc2)CC1)Nc1ccc2c(c1)OCCO2
→ 0	3.5	4	1	8197	15	5
> O=C(NCc1ccccc1)C1=C[C@H](C2CC2)C[C@H](OCc2ccc(CO)cc2)O1
→ -4	.	.	-11	3769	.	.
> CS(=O)(=O)N(CC(=O)N/N=C/c1cc2c(cc1Br)OCO2)c1ccccc1Br
→ -6	.	.	-4	2054	.	.

# Whole records as entered above. Order of screens: PrP UTR inh	Sa RN4220 lethal	Mtb hypoxia rep	BJeLR viability	Autofluor counter	Sa ugtP lethal	Mtb hypoxia rep growth
# C=CCSc1nc(-c2ccccc2)c(C#N)c(=O)[nH]1 reads .	13	15	.	11136	5	6
# CCCCc1cc(=O)oc2c(CN(C)C)c(O)ccc12 reads 12	5.3	6	-7	7742	5	6
# CN(C(=O)COc1ncnc2ccccc12)C1CCCCC1 reads -7	-3.0	3	.	3696	-5	13
# O=C(NCc1ccccc1)C1=C[C@H](C2CC2)C[C@H](OCc2ccc(CO)cc2)O1 reads -4	.	.	-11	3769	.	.
# Cc1ccc(-n2nnnc2/C=C\Nc2cc(C)on2)cc1 reads -10	6.8	-2	8	2096	2	11

# Further structures.
# Under each structure: PrP UTR inh	Sa RN4220 lethal	Mtb hypoxia rep	BJeLR viability	Autofluor counter	Sa ugtP lethal	Mtb hypoxia rep growth
> Cc1c(C)n(CCCN(C)C)c2ncnc(Nc3ccccc3)c12
→ -15	-1.5	-1	7	4528	0	8
> COc1ccc(NC(=S)NNC(=O)c2cccs2)cc1
→ -47	3.5	3	6	6570	0	15
> O=[N+]([O-])c1ccc(Cl)c(S(=O)(=O)Nc2ccc(-c3ccc(N4CCOCC4)nn3)cc2)c1
→ -32	-3.0	-5	5	4805	-1	8
> O=C(Nc1ccc(F)cc1)c1csc(Cc2ccccc2)n1
→ -48	-0.1	13	-12	4112	24	3
> CNS(=O)(=O)c1cn(CC(=O)NCc2cccc(OC)c2)cc1S(=O)(=O)NC
→ -19	1.3	11	6	4067	-1	1
> COc1cc(NC(=O)c2ccccn2)cc(OC)c1OC
→ 9	1.1	15	7	4470	4	-6
> COCCN(CC1CCCN(C2Cc3ccccc3C2)C1)C(=O)CCC(N)=O (centres undefined)
→ -12	-0.7	6	-11	4307	5	2
> CSc1ccc(CN2CCC(N3CC(C)OC(C)C3)CC2)cc1 (centres undefined)
→ -37	-1.6	3	-3	3769	12	9
> CC(C)(C)c1ccc(C(=O)Nc2ccc(O)c3c(=O)cc(-c4cccc(Cl)c4)oc23)cc1
→ -16	9.0	1	5	3760	7	-2
> O=C(c1nn2c(C(F)(F)F)cc(-c3ccc(F)cc3)nc2c1Cl)N1CCOCC1
→ -8	-0.8	.	-7	2344	29	.
> O=NNc1nc2ccccc2n1Cc1ccccc1
→ -11	3.0	-5	13	3202	-14	-7
> CCc1ccc(N2CN(Cc3ccco3)CNC2=S)cc1
→ -19	2.6	.	0	3887	3	.
> Cc1nc2c(-c3ccccc3)c(C)[nH]n2c(=O)c1Cl
→ -16	5.6	.	0	2651	3	.
> O=C(c1ccc(O)cc1)c1ccc(Cl)cc1
→ -17	5.5	.	4	2725	-1	.
> O=C(Nc1cccc(-c2nc3ccccc3s2)c1)c1cccs1
→ -30	21	14	-2	3084	75	10
> O=C1C=C(c2ccc(-c3ccccc3)c(F)c2)CC(c2ccc(F)cc2)C1 (centres undefined)
→ .	-7.5	7	.	.	11	3
> CCOC(=O)c1csc(NC(=O)C2CCCCC2)n1
→ -33	0.0	2	6	5744	4	3
> COc1ccc(N2C(=O)CC(c3ccccc3)C2=O)cc1 (centres undefined)
→ -11	4.7	-11	6	4485	11	-1
> O=C(NC(=O)c1ccc(F)cc1F)Nc1ccc(Cl)cc1
→ -62	5.7	7	-4	4330	7	6
> NC(=S)NN=C1CC(n2nnn(-c3cccc(Cl)c3)c2=S)C2COC1O2 (centres undefined)
→ .	8.8	-2	.	.	4	5
> Cc1cccc(CN2CCC(N3CC(C)OC(C)C3)CC2)c1 (centres undefined)
→ -11	5.5	3	-3	3346	12	1
> Cc1ccc(S(=O)(=O)c2nc(-c3ccccc3)oc2NCc2cccnc2)cc1
→ -10	-6.9	9	-12	2839	-2	9
